From PubChem
Bfl-1 A1 inh: inhibitors of the anti-apoptotic protein A1, read as caspase activation; hit rate 0.066% among 330,000; caspase activation, % (test concentration not listed); MEF A1-2A-BIM cells, Caspase-Glo 3/7 luminescence, 3 h; percent of clofoctol response, vehicle zero;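 active = over half of replicate activation scores above 10%, or exactly half above 10 with the replicate mean above 10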;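 also: wells of about 30 µL received 50 nL stock; many hits fall short of the cut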
B2AR ag: agonists of human beta-2 adrenergic receptor inducing internalization; P07550; Am2.2-beta2AR cells, FAP receptor internalization, flow cytometry; reference of the scale not given here; response, % (test concentration not listed); hit rate 0.43% among 340,000;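 active = response above a set limit, near 3 SD of response in nonfluorescent compounds, cut at about 42% in these data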;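 also: stock transfer was 100 nL into about 11 µL; a reference agonist was the positive control; negative values mostly stem from fluorescent compounds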
UCH37 inh: inhibitors of human deubiquitinating enzyme UCH37. Q9Y5K5. purified proteasome/UCH37, Ub-AMC cleavage fluorescence. hit rate 0.33% among 330,000. inhibition, % (test concentration not listed);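 active = mean of two replicates above 20%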;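 also: 0% = compound-free wells with enzyme and 100% = wells lacking proteasome; stock transfer was 100 nL into about 20 µL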
Target sequence (Q9Y5K5 whole entry, looked up): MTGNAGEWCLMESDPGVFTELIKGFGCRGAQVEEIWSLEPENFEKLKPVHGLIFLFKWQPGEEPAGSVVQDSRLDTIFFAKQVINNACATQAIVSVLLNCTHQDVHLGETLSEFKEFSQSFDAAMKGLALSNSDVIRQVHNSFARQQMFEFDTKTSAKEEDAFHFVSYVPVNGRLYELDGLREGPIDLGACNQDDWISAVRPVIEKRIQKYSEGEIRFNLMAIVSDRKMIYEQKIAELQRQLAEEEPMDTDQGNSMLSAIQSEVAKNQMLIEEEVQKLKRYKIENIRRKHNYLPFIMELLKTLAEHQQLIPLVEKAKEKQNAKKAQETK
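assay system = human UCH37 enzyme supplied as purified proteasome complex | amount = proteasome at 0.15 nM in the dispensed enzyme solution | schedule = 30 min compound-proteasome preincubation then 25 min substrate reaction, room temperature | measured by = fluorescence, ex 355 nm, em 460 nm | benchmarks = no-proteasome wells (full inhibition) and compound-free wells (no inhibition)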
E coli growth: E. coli growth inhibition; Escherichia coli growth, OD600, 23 h; active compounds read low; hit rate 0.21% among 330,000; AID 1053175; OD600 absorbance (no concentration beside the values);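 active = OD600 absorbance below the run mean of sample wells minus 3.6 SD, in any replicate, cut at about 0.56 in these data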;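 also: stock transfer was 300 nL into about 60 µL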
Vif A3G: HIV-1 Vif–A3G interaction blockers – biochemical, TR-FRET, GST-Vif 1-94, biotin-A3G peptide, dose response retest, primary screen (AID 1117319); TR-FRET GST-Vif / biotin-A3G peptide binding; higher % means a stronger effect; test concentration not given here; strong numbers were not always called active; hit rate 0.57% among 260,000; inhibition, %, or IC50 in µM where a hit was titrated;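 active = above the screen mean plus three standard deviations and confirmed in dose response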;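 also: Vif residues 1-94 fused to GST binding biotinylated APOBEC3G peptide 110-148; 0% = full assay without inhibitor and 100% = GST in place of GST-Vif; retest series ran down from 100 µM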
LANA-H2A inh: blocks KSHV LANA binding to histone H2A/H2B | hit rate 0.6% among 320,000 | cell-free LANA-H2A/H2B peptide, fluorescence polarization | Q9QR71 | inhibition, % (no concentration beside the values); in the data active = inhibition mostly above about 10%, no sharp cut-off; inactive = mostly below about 6.7%;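 also: stock transfer was 7.5 nL into about 10 µL; 0% = median of vehicle wells and 100% = median of positive control wells; one replicate is shown; the record names a cut of 25% in any replicate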
HNF4A DNA FP: change in binding of human HNF4 alpha to DNA. P41235. HNF4a-FITC DNA binding, fluorescence polarization, 1 h. AID 1224865. activity change, % at 10 µM. hit rate 0.3% among 360,000; in the data active = activity change above about 30%, passing the limit was not always enough;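 also: controls were the assay level and a saturating level of protein; the project sought stronger binding though the title names inhibitors; some compounds called inactive have numbers as strong as hits; positive values seem to mean higher polarization but the record does not say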
Target sequence (P41235 whole entry, looked up): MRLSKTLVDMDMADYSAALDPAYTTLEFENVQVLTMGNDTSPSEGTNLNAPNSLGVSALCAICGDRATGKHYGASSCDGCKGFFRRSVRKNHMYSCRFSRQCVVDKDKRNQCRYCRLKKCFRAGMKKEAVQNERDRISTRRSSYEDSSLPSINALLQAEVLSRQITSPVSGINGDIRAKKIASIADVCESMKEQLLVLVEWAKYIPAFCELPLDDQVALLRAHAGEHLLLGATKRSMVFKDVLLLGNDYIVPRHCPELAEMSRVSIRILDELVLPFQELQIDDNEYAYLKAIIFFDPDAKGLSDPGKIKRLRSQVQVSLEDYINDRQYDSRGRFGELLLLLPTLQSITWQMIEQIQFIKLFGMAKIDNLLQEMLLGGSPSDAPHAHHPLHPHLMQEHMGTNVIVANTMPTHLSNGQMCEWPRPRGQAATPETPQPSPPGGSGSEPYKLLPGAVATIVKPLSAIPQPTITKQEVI
Starred values were filed as active, the others as inactive; x = no result given.

SMILES	Bfl-1 A1 inh	B2AR ag	UCH37 inh	E coli growth	Vif A3G	LANA-H2A inh	HNF4A DNA FP
COc1ccc2c(c1)c(=O)oc1cc3occ(C(C)(C)C)c3cc12	2.2	8	-32	0.66	9%	12*	-4.5
CCOC(=O)c1cnn(-c2ccc(F)cc2)c1N	0.2	-1	3.6	0.7	x	2.9	-0.2
O=C(CSC1=NS(=O)(=O)c2ccccc2N1)Nc1cccc(F)c1	0.4	-1	2.6	0.64	-2%	x	-1.6
O=C(COc1ccccc1Cl)c1ccc[nH]1	-3.1	5	5.0	0.69	2.9µM*	-5.8	-4.6
COc1ccc(NC2CCCN(C(=O)c3oc(C)cc3C)C2)cc1OC (stereo not drawn)	1.3	4	2.8	0.67	x	-1.1	1.8
O=S(=O)(NCc1ccccc1)c1ccc(S(=O)(=O)N(Cc2ccccn2)Cc2ccco2)cc1	0.0	-3	2.5	0.75	-5%	2.0	-3.2
CC(C)c1ccc(C(=O)NCCCN2CCN(CCCNC(=O)c3ccc(C(C)C)cc3)CC2)cc1	0.9	46*	0.0	0.67	12%	-2.5	1.7
O=C1NC[C@H](Cc2ccccc2)N(C[C@H]2CCCN2C[C@H](Cc2ccc(O)cc2)N2C[C@H](Cc3ccc(O)cc3)N(CC3CCCCCC3)C(=O)C2=O)C1=O	x	-1	x	x	-5%	x	2.4
Cc1cccc(NC(=S)N2CCC(C(=O)c3ccc(F)cc3)CC2)c1C	-0.7	10	5.2	0.68	21%	-2.3	0.0
Cn1c(CNC(=O)C(Cc2ccccc2)NC(=O)c2ccccc2)cc(=O)n(C)c1=O (stereo not drawn)	-1.1	-1	4.0	0.7	2%	-8.9	-0.7
CNc1nc(OCC(F)(F)F)nc(OCC(F)(F)F)n1	0.0	1	2.2	0.69	x	-0.5	-0.1
Cc1nc(C#N)c(N/N=C/c2cccc(Cl)c2)o1	-4.0	3	x	x	17%	-6.1	2.9
O=C(Nc1ccccc1)c1ccc2ccccc2n1	-9.3	10	-0.2	0.63	-6%	2.5	-0.5
COc1ccc(-c2cccc(C3CC=CC4C3C(=O)N(Cc3ccccc3)C4c3ccc4ccccc4c3)c2)cc1 (stereo not drawn)	0.3	-2	-0.6	0.71	8%	-3.0	-1.4
Cc1cccc(NC(=O)c2cc3n(n2)C(C(F)(F)F)CC(c2ccc4c(c2)OCO4)N3)c1 (stereo not drawn)	0.7	0	2.0	0.72	4%	5.4	-0.6
CC1(C2CC2)NC(=O)N(CC(=O)Nc2ccc(C(F)(F)F)cc2)C1=O (stereo not drawn)	-0.7	5	0.0	0.68	x	12*	0.3
O=C(Cn1c(=O)oc2ccccc21)Nc1ccc(Cl)cc1Cl	2.0	-1	3.6	0.69	x	1.6	-0.3
O=C(O)c1cc(-c2ccccc2)n(-c2ccccc2)n1	0.3	3	4.9	0.71	6%	4.6	-0.9
CCCC(=O)N(c1ccc2oc(=O)sc2c1)S(=O)(=O)c1ccccc1	0.2	-4	0.4	0.72	20%	-1.2	-1.1
Cc1cc(NS(=O)(=O)c2ccc(NC(=S)NCc3ccccc3)cc2)no1	-0.2	-4	0.8	0.7	-5%	2.7	2.4
COc1ccc(Cn2ccnc2CO)cc1[N+](=O)[O-]	0.8	-1	2.7	0.7	4%	-2.8	-0.2
COc1cc(C(=O)N/C(=C\c2cn(C)c3ccccc23)C(=O)N2CCN(C)CC2)cc(OC)c1OC	x	4	6.6	0.66	x	x	0.6
CC1(C)C2([N+](=O)[O-])CN3CC1([N+](=O)[O-])CN(C2)C3C(O)C(O)C(O)CO (stereo not drawn)	0.6	-1	0.3	0.65	1%	1.8	3.0
O=S(=O)(Cc1ccccc1)CS(=O)(=O)Cc1ccccc1	x	0	0.5	0.66	2%	x	4.0
CC(C)(C)c1ccc(C(=O)O)c(C(=O)c2ccccc2)c1	-1.0	12	3.5	0.64	-10%	1.0	5.4
CCO[C@@H]1OC(C(=O)NCc2ccccc2)=C[C@H](c2ccc3c(c2)OCO3)[C@H]1CCCO	0.2	2	0.4	x	16%	-2.7	3.0
N#CCC(=O)c1ccccc1Oc1ccc(Cl)cc1	0.6	-1	-4.1	0.7	x	2.0	0.9
CCOc1cc(C(=O)NCC(C)(C)CNC(=O)c2cc(OCC)c(OCC)c(OCC)c2)cc(OCC)c1OCC	0.0	2	7.7	0.68	x	0.7	0.7
O=C1CN(C(=O)COC(=O)c2ccccc2O)c2ccccc2N1	-0.6	-4	6.4	0.68	-7%	12	1.1
CC1CCCC(NC(=O)CN2C(=O)c3cccnc3Oc3ccc(Cl)cc32)C1C (stereo not drawn)	0.5	-2	1.4	0.68	2%	6.7	1.3
COc1ccc(/C=N/Nc2c(Cl)cc(Cl)cc2Cl)cc1CN1CCOCC1	-0.9	-10	x	x	x	-0.7	3.3
COc1ccc(-c2noc(CSc3nc4ccccc4c(=O)n3-c3ccc(C)cc3)n2)cc1	0.2	2	3.9	0.76	-6%	-2.5	2.7
CC(C)CN(CC(C)C)S(=O)(=O)N1CCC(C(=O)NC2CCCCCCC2)CC1	0.9	5	0.9	0.71	-1%	1.7	1.4
COc1ccc(CN2CCN(Cc3cccc(F)c3)CC2)cc1OC	0.9	18	0.7	0.69	-7%	0.6	1.9
O=C(Nc1ccc(N2CCN(C(=O)c3ccco3)CC2)c(Cl)c1)c1cc2ccccc2o1	0.1	27	0.1	x	25%	-8.5	-0.1
CC(C)N(O)C(=O)NC(C)(C)C	-0.8	2	4.7	0.76	3%	4.2	-1.8

4 of these compounds in a different format.
Each structure is followed by: Bfl-1 A1 inh | B2AR ag | UCH37 inh | E coli growth | Vif A3G | LANA-H2A inh | HNF4A DNA FP
> CC(C)(C)c1ccc(C(=O)O)c(C(=O)c2ccccc2)c1
  -1.0 | 12 | 3.5 | 0.64 | -10% | 1.0 | 5.4
> CCO[C@@H]1OC(C(=O)NCc2ccccc2)=C[C@H](c2ccc3c(c2)OCO3)[C@H]1CCCO
  0.2 | 2 | 0.4 | x | 16% | -2.7 | 3.0
> N#CCC(=O)c1ccccc1Oc1ccc(Cl)cc1
  0.6 | -1 | -4.1 | 0.7 | x | 2.0 | 0.9
> CCOc1cc(C(=O)NCC(C)(C)CNC(=O)c2cc(OCC)c(OCC)c(OCC)c2)cc(OCC)c1OCC
  0.0 | 2 | 7.7 | 0.68 | x | 0.7 | 0.7

Going on with the list:
SMILES	Bfl-1 A1 inh	B2AR ag	UCH37 inh	E coli growth	Vif A3G	LANA-H2A inh	HNF4A DNA FP
Cc1c(Cl)cccc1NC(=O)CCN1C(=O)NC(C)(C)C1=O	x	-1	4.6	0.68	0%	x	2.1
CC1=C(C(=O)OCC2CCCO2)C(c2ccc(O)cc2)NC(=O)N1 (stereo not drawn)	0.7	-8	4.4	0.66	11%	1.4	-2.1
CCC1(C)CC(=O)N(c2ccc(F)c(Cl)c2)C(=O)C1	0.0	4	0.5	0.7	-7%	12	3.8
COc1ccc(N(CC(=O)Nc2ccccc2OC)S(=O)(=O)c2ccc(OC)c(OC)c2)cc1	1.0	-15	2.5	0.65	x	3.3	-0.6
COc1ccc(S(=O)(=O)N2CCN(C)CC2)cc1Br	0.8	-2	1.3	0.69	7%	-1.3	-3.4
O=C(Nc1ccc(-c2nc3ccccc3c(=O)o2)cc1)c1ccco1	-2.1	-4	-92	0.71	x	4.7	1.6
Cc1ccccc1C(=O)NC1CCN(CC(=O)Nc2nccs2)CC1	0.9	-8	2.3	0.71	-3%	-0.1	-1.0
COc1cccc(/C=N/NC(=O)CCc2ccccc2)c1	-1.1	-1	x	x	-3%	-7.6	12
O=C(CN1C(=O)c2ccccc2S1(=O)=O)NCc1c(F)cccc1F	-0.3	-1	5.7	0.65	4%	3.8	3.0
CCc1nc(N2CCC(C)CC2)c2oc3ccccc3c2n1	-0.2	-1	-9.2	0.68	0%	0.9	1.5
Cc1ccc(S(=O)(=O)N2CCN(C(=O)c3ccccc3)CC2)cc1	0.2	-3	1.7	0.7	7%	-3.8	3.4
O=C1CC(c2ccccc2)CC(O)=C1C=Nc1ccc(O)cc1 (stereo not drawn)	-0.6	-8	4.1	0.67	24%	6.5	0.5
CC(=O)C1=C(C)NC(SCC(=O)c2ccc(F)cc2)=C(C#N)C1CC(C)C (stereo not drawn)	-0.6	4	-2.5	0.68	20%	-2.6	-0.6
Cc1ncc([N+](=O)[O-])n1CCOC(=O)Nc1ccc([N+](=O)[O-])cc1	0.7	-1	3.3	0.67	20%	3.1	-1.6
CCOC(=O)C(Cc1c[nH]c2ccc([N+](=O)[O-])cc12)(NC(C)=O)C(=O)OCC	x	-1	10	0.67	-5%	x	4.4
COc1cc(/C=N/NC(=O)CCn2cnc(-c3ccccc3)c2-c2ccccc2)ccc1O	0.6	12	x	x	24%	-0.9	1.6
O=[N+]([O-])c1nn(-c2ccc3c(c2)OCCO3)n(O)c1=NCCC1=CCCCC1	0.9	-5	3.3	0.73	0%	-1.0	1.2
Cc1ccnc(NC(=O)c2ccccc2NC(=O)c2ccccc2)c1	-3.2	1	-1.9	0.69	-2%	-0.7	2.1
OCCCNC(=S)Nc1ccc(Oc2ccccc2)cc1	-0.5	-20	3.5	0.67	14%	3.4	-0.8
Clc1ccsc1-c1ccc2ccccc2n1	-0.2	-2	1.7	0.7	-11%	-4.1	-2.1
Cc1cc(C)cc(OCC(=O)OCC(=O)N(CC(C)C)c2c(N)n(Cc3ccccc3)c(=O)[nH]c2=O)c1	-0.6	-5	-0.1	0.65	1%	4.7	0.7
O=C(NCCC(=O)N1O[C@@H]2C=C[C@H]1C2)OCC1c2ccccc2-c2ccccc21	x	1	-2.5	0.74	-6%	x	0.8
Cc1cccc(-c2c3c(=O)n(C)c(=O)n(C)c3cn2CCO)c1	0.9	-4	3.1	0.72	0%	1.6	2.2
O=c1c2ccccc2nnn1CCN1CCOCC1	1.2	3	4.5	0.69	-4%	2.4	3.0
COCC(=O)NC1CCN(CC(=O)Nc2ccccc2[N+](=O)[O-])CC1	0.8	2	1.9	0.71	1%	2.1	0.0
CSc1cccc(NC(=O)Nc2nc3c(C)cccc3s2)c1	-1.7	8	x	x	-6%	-0.6	1.4
Cc1ccc(S(=O)(=O)Nc2ccc3c(c2)nc(CN2CCCC2)n3C)cc1	0.3	4	5.7	0.66	24%	0.5	1.7
CCC1Sc2ccc(S(=O)(=O)CCC(=O)NCc3cccs3)cc2NC1=O (stereo not drawn)	0.5	-4	1.0	0.67	x	-2.8	0.7
CCOC(=O)c1ccc(N/C=C/C(=O)c2ccc(OC)cc2)cc1	-0.3	3	2.9	0.75	8%	2.7	0.8
CCOC(=O)C1(CCOc2ccccc2)CCN(Cc2cnc(C)s2)CC1	0.7	1	1.2	0.69	3%	3.1	5.4
O=C(NCC1CCCO1)c1ccccc1NS(=O)(=O)c1cccc([N+](=O)[O-])c1 (stereo not drawn)	0.2	-3	1.3	0.63	x	2.3	0.0
COc1ccc(/C=N/NC(=O)CN2CCCC2)cc1	-0.3	-4	x	x	x	4.5	-3.8
COc1cc(C2NC(=O)CS2)cc(OC)c1OC (stereo not drawn)	-0.2	-11	3.3	0.71	12%	9.4	-3.1
COc1cc(O)oc1C=Nc1ccc(Cl)cc1	1.0	-5	6.4	0.73	0%	-0.4	1.4
COCc1cc(=O)[nH]c(/N=C(\N)Nc2cccc(Cl)c2)n1	-0.3	-10	x	x	x	-6.0	3.6
Cc1cc(NC(=O)c2cc(CC(C)C)on2)n(-c2ccccc2)n1	0.9	2	0.5	0.72	0%	4.7	-6.0
Cc1cc(=O)oc2cc(OCC(=O)NC3CCCC3)ccc12	-0.1	-1	-18	0.73	x	6.1	3.9
CCC1COCCS(=O)(=O)N1Cc1ccc(Cl)cc1 (stereo not drawn)	0.6	12	0.0	0.7	x	3.3	0.7
COc1ccc(CNC(=O)OCc2nccnc2C(=O)Nc2ccc(Br)cn2)cc1	-4.9	-1	1.5	0.71	0%	-3.6	3.4
CC(=O)Nc1c(Br)cc(N2C(=O)CCC2=O)cc1Br	-0.1	2	0.7	0.66	33%	-0.5	5.6
